Bioassay records (PubChem)
FXIIa inh: inhibitors of human coagulation factor XIIa; hit rate 0.3% among 220,000; P00748; purified FXIIa, Boc-QGR-AMC fluorogenic substrate, 2 h; inhibition, % at 5 µM; in the data active = inhibition above about 40%;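 also: 0% = enzyme with no compound and 100% = blank without enzyme; many of its hits are not listed in these tables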
zVAD death inh: L929 zVAD cell death inhibition | L929 zVAD necroptosis rescue, ATP luminescence, 24 h; with zVAD 60 µM | viability rescue, % at 10 µM | hit rate 0.38% among 220,000 | AID 1377;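 active = activation, scaled between plate controls, above about 75%, limit read from the data; inactive = activation under that limit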;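 also: 0% = zVAD with DMSO and 100% = DMSO alone without zVAD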
Hck-Nef inh: human Hck-Nef kinase inhibition; P08631; Recombinant Hck-YEEI plus Nef, Z-Lyte FRET kinase assay; inhibition, % at 20 µM; hit rate 0.68% among 220,000; AID 463187;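 active = Hck-Nef kinase inhibition above about 50%, limit read from the data; inactive = inhibition below that limit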;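 also: 0% = DMSO with Hck plus Nef and 100% = Hck alone without Nef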
TNF necrop inh: TNF-alpha cell death inhibition in Jurkat FADD-/- cells. Jurkat FADD-/- TNF necroptosis rescue, ATP luminescence, 24 h; 0 = TNF only, 100 = no-TNF cells. activation (protection from cell death), % at 10 µM. hit rate 0.068% among 220,000. AID 463075;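 active = activation, meaning protection from cell death, of at least 50% relative to plate controls; inactive = activation below 50%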;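 also: necroptosis triggered by 40 ng/mL TNF-alpha added together with compound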
FXIa inh: factor XIa (human) inhibition. P03951. purified FXIa, Boc-Glu-Ala-Arg-AMC fluorogenic substrate. inhibition, % at 5 µM. hit rate 0.14% among 220,000. AID 798;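 active = inhibition of at least 40%; inactive = inhibition below 40%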;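 also: fluorescence of freed AMC excited at 355 nm; 0% = enzyme without compound and 100% = no enzyme blank; many of its hits are not listed in these tables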
Target sequence (P03951 19-387 limits assumed): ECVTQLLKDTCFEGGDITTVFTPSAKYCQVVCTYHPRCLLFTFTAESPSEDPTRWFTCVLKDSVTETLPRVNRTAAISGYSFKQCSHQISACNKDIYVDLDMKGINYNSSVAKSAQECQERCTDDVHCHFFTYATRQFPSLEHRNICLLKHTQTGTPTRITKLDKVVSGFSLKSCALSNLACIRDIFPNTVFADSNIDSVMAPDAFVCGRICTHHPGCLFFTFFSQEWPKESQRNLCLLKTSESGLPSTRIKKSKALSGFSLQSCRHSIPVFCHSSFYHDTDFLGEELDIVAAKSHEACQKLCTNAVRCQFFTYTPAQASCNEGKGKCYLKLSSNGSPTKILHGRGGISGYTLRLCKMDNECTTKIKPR
Target sequence (P03951 388-625 limits assumed): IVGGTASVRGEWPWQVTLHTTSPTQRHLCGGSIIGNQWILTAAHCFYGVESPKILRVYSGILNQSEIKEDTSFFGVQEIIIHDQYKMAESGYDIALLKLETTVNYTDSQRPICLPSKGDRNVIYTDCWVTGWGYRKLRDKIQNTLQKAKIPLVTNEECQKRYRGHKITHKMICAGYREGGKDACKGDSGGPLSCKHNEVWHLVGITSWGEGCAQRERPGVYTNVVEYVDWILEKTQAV
Cl transport mod: modulators of human KCC2 chloride dependent transport; hit rate 2.2% among 190,000; KCC2 cells, thallium flux FluoZin-2 fluorescence; AID 1456; B-score of Tl+ flux slope (higher = more flux/activation; lower = inhibition) at 10 µM; Q9H2X9;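 active = thallium flux slope and its plate-corrected score both differing from the plate sample mean at a set confidence after two filtering rounds, in either direction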;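 also: slope of fluorescence scaled to starting intensity during 10 to 20 s after thallium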
thrombin 1536: blocks human thrombin protease activity. P00734. alpha-thrombin, Boc-VPR-AMC fluorogenic substrate cleavage. inhibition, % at 5 µM. hit rate 0.26% among 220,000. AID 1046;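 active = inhibition at or above 40%; inactive = inhibition below 40%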;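 also: 0% = enzyme with no compound and 100% = wells without enzyme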
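System – human alpha-thrombin protein · Reagent – Boc-VPR-AMC substrate, 15 µM final · Compound – 5 µM single dose in 0.2% DMSO · Schedule – reaction at room temperature · Technique – AMC fluorescence at 355 nm excitation and 460 nm emission · Read-out basis – % inhibition relative to enzyme controls and enzyme-free blanks · Control set – no-compound enzyme wells and no-enzyme blanks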
Rad51 HR inh: Rad51 (human) homologous recombination inhibition. Q06609. hRad51 DNA strand exchange, fluorescence dequenching. inhibition, % at 10 µM. hit rate 0.085% among 200,000. AID 1385;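 active = inhibition above 40% at the single screening dose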;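 also: 0% = DMSO control wells and 100% = blanks with heterologous ssDNA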
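Material: hRad51 filaments on single-stranded DNA; Reagent: Donor/quencher-labelled 47-bp dsDNA substrate; Compound: 10 µM final, single point; Schedule: 37 °C 15-min filament assembly, 30-min compound preincubation, 15-min exchange; Technique: FRET fluorescence, excitation 485 nm, emission 520 nm; Benchmarks: control wells and blank wells on each plate.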
* marks the source's active call; other numbers are inactive results; . = not tested or not shown.

item	SMILES	FXIIa inh	zVAD death inh	Hck-Nef inh	TNF necrop inh	FXIa inh	Cl transport mod	thrombin 1536	Rad51 HR inh
1	O=C(O)c1ccccc1/C=N/Nc1nc(N2CCCCC2)nc(N2CCCCC2)n1	3	3.8	20	1.3	-2	-0.07	3	-3
2	Clc1ccc(-c2noc(CN3CCN(c4ccccc4)CC3)n2)cc1	-1	-0.1	10	0.8	-2	0.8	-12	-1
3	CCOC(=O)/C(C#N)=C\C1=C(N2CCCC2)CC(C)(CC)OC1 (stereo unspecified)	18	1.9	5	1.0	9	0.27	2	-2
4	COc1ccc(C(=O)N/C(=C/c2cccs2)c2nc3ccccc3[nH]2)cc1OC	11	0.8	6	-0.9	6	-0.22	-5	-9
5	C=CCN1C2CCCC1CC(NC(=S)Nc1cccc(OC)c1)C2 (stereo unspecified)	3	-0.9	13	-1.6	-6	.	4	26
6	CCNC(=S)NNc1nncc2ccccc12	9	0.0	27	-0.8	2	0.57	-11	-5
7	O=C(Cc1ccc(Cl)cc1)Nc1ccc(N2CCN(C(=O)c3ccco3)CC2)cc1	13	.	-8	3.6	-6	-0.034	0	-8
8	CCOc1ccccc1C(=O)N1CCOCC1	-1	1.8	1	2.8	-17	-0.31	-4	7
9	Cc1cc(C(F)(F)F)nc(SCC(=O)NC2=NC(=O)C(C)S2)n1 (stereo unspecified)	4	0.2	1	-0.5	5	.	1	.
10	CCc1cccc(N(C(=O)c2csnn2)C(C(=O)NC(C)(C)C)c2ccncc2)c1 (stereo unspecified)	10	2.5	18	0.0	-4	1	1	-5

Additional records follow.
item	SMILES	FXIIa inh	zVAD death inh	Hck-Nef inh	TNF necrop inh	FXIa inh	Cl transport mod	thrombin 1536	Rad51 HR inh
11	O=C(Nc1ccsc1C(=O)NC1CC1)c1ccccc1	-9	2.7	0	-2.9	3	.	-1	4
12	O=C(Nc1cnccn1)Nc1ccc(Cl)cc1Cl	9	80*	29	-3.1	1	0.46	-10	0
13	COc1ccc(N2CCN(C(=O)CC3NC4CCCCC4NC3=O)CC2)cc1 (stereo unspecified)	3	3.9	4	-0.6	0	-0.55	-2	-2
14	O=C(c1ccco1)N(Cc1ccc([N+](=O)[O-])cc1)c1ccc(Br)cc1	0	-0.5	-1	-3.9	-2	-2.2	-4	-2
15	Cc1ccccc1Nc1nnc(SCC(=O)NCc2ccco2)s1	19	1.8	0	-0.4	6	.	-2	-4
16	O=C(CCS(=O)(=O)c1ccc(Br)cc1)N1CCN(c2ccccc2F)CC1	-6	-0.2	-4	-0.4	-8	0.087	-6	-10
17	CC1(C)CC(=O)C2=C(C1)OC(N)=C(C#N)C2c1ccccc1OC(=O)N1CCOCC1 (stereo unspecified)	2	0.6	-4	1.6	1	0.55	-9	6
18	Cc1ccc(S(=O)(=O)N[C@H](C(=O)N2CCC(C(=O)N3CCC[C@H]3C(=O)O)CC2)C(C)C)cc1	2	0.2	-1	-2.2	7	.	2	2
19	O=C1C2C3c4ccccc4C(c4ccccc43)C2C(=O)N1Cc1ccccn1 (stereo unspecified)	12	0.5	23	-2.7	-1	-0.35	-2	-2
20	Cc1ccccc1CS(=O)(=O)Cc1ccc(C(=O)NCCCN2CCOCC2)o1	8	0.1	0	-1.4	-4	-0.5	-4	.

Results in sequence from the entries so far:
Compounds 7–11 in TNF necrop inh, in turn: 3.6, 2.8, -0.5, 0.0, -2.9

The results go on:
item	SMILES	FXIIa inh	zVAD death inh	Hck-Nef inh	TNF necrop inh	FXIa inh	Cl transport mod	thrombin 1536	Rad51 HR inh
21	NC(=O)c1cccnc1Nc1ccccc1Cl	4	0.6	3	0.6	0	-0.24	-8	1
22	CC(C)c1ccc(NC(=O)COC(=O)C2=COCCO2)cc1	-7	0.1	1	-1.0	1	.	6	-5
23	COc1ccc(-c2cc(=O)c3ccccc3o2)cc1	-8	1.4	39	-5.5	-5	-1.1	-4	1
24	O=C(CSCc1ccc(F)cc1)N1CCN(c2ccccc2)CC1	6	0.0	1	1.6	-1	-3.3	0	-5
25	CC(CC(=O)Nc1nc2ccccc2[nH]1)c1ccccc1 (stereo unspecified)	-10	0.5	0	2.8	-11	.	-3	9
26	O=C(CN1CCN(C/C=C/c2ccccc2)CC1)Nc1cc([N+](=O)[O-])ccc1Cl	3	0.3	3	1.7	3	0.78	-9	9
27	CCCC(=O)Nc1ccc2c(c1)nc1n2CCN(C2CCCCC2)C1	9	32	19	2.0	-3	0.31	-10	0
28	Cn1c(NCCN2CCOCC2)nc2c1c(=O)n(Cc1cccc(Cl)c1)c(=O)n2C	3	0.0	3	-0.5	-9	-1.1	-3	1
29	COc1ccc(OC2C(=O)N(CCc3ccc(OC)c(OC)c3)C2c2ccc3c(c2)OCO3)cc1 (stereo unspecified)	14	0.6	1	-8.6	11	0.7	15	1
30	Cc1nn(C)cc1C(C(=O)NC1CCCCC1)N(C(=O)c1cnccn1)c1ccc(Oc2ccccc2)cc1 (stereo unspecified)	5	-0.1	-6	-0.2	3	-0.84	-1	13

Ordered by value in FXIIa inh (descending): some entries from above
no.	molecule	FXIIa inh
10	CCc1cccc(N(C(=O)c2csnn2)C(C(=O)NC(C)(C)C)c2ccncc2)c1 (stereo unspecified)	10
1	O=C(O)c1ccccc1/C=N/Nc1nc(N2CCCCC2)nc(N2CCCCC2)n1	3
14	O=C(c1ccco1)N(Cc1ccc([N+](=O)[O-])cc1)c1ccc(Br)cc1	0

(continued)
item	SMILES	FXIIa inh	zVAD death inh	Hck-Nef inh	TNF necrop inh	FXIa inh	Cl transport mod	thrombin 1536	Rad51 HR inh
31	CNc1ccc(Oc2nc([N+](=O)[O-])nn2C)cc1	5	2.1	22	1.6	-8	1.6	-2	-12
32	COc1cc2nc(C3CCC3)nc(N3CCN(c4ccccc4OC)CC3)c2cc1OC	9	0.3	-7	2.0	2	-1.1	-1	.
33	CCCc1cc(C(N)=O)c(NC(C)=O)s1	15	75	18	-6.2	-2	0.91	2	-4
34	O=C(O)C1CC=CCC1C(=O)NCc1cn2ccccc2n1 (stereo unspecified)	20	1.1	-1	1.2	22	0.69	0	-13
35	CCOC(=O)/C(C#N)=C/C1=C(N2CCCC2)CC(C)(CC)OC1 (stereo unspecified)	8	-0.5	2	0.2	-21	.	-5	3
36	Cc1cc2c(c(SCC#N)n1)C(=O)OC2	9	-0.5	16	-0.1	0	0.27	-2	14
37	COC(=O)CNC(=O)C1Cc2ccccc2CN1S(=O)(=O)c1cccs1 (stereo unspecified)	8	0.2	18	2.1	1	-0.014	0	26
38	Cc1nnsc1C(=O)N/N=C/c1ccccc1Cl	0	1.0	10	3.7	-3	-0.76	-6	5
39	CCOC(=O)c1n[nH]c2ccccc12	-2	3.5	-3	-1.4	-12	-0.4	-8	.
40	CCCCn1c(=O)nc2n(-c3ccc(C)cc3)c3ccccc3cc-2c1=O	6	0.5	4	0.6	12	-0.3	-4	5

A different layout for part of the listing above.
Order of results – FXIIa inh, zVAD death inh, Hck-Nef inh, TNF necrop inh, FXIa inh, Cl transport mod, thrombin 1536, Rad51 HR inh
[15] Cc1ccccc1Nc1nnc(SCC(=O)NCc2ccco2)s1
    19, 1.8, 0, -0.4, 6, ., -2, -4
[26] O=C(CN1CCN(C/C=C/c2ccccc2)CC1)Nc1cc([N+](=O)[O-])ccc1Cl
    3, 0.3, 3, 1.7, 3, 0.78, -9, 9
[24] O=C(CSCc1ccc(F)cc1)N1CCN(c2ccccc2)CC1
    6, 0.0, 1, 1.6, -1, -3.3, 0, -5
[31] CNc1ccc(Oc2nc([N+](=O)[O-])nn2C)cc1
    5, 2.1, 22, 1.6, -8, 1.6, -2, -12
[11] O=C(Nc1ccsc1C(=O)NC1CC1)c1ccccc1
    -9, 2.7, 0, -2.9, 3, ., -1, 4
[25] CC(CC(=O)Nc1nc2ccccc2[nH]1)c1ccccc1 (stereo unspecified)
    -10, 0.5, 0, 2.8, -11, ., -3, 9

This is a subset; the hit share may differ from the screen's.
